# Bioassay records as filed in PubChem.
# HCMV UL50-53 inh = disrupts HCMV UL50-UL53 complex binding. hit rate 0.15% among 190,000. inhibition, % (concentration not given with the values). HTRF UL50-UL53 interaction, normalized percent inhibition. AID 1918969;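 active means both replicates at 50% or more, plus weaker picks with an unusually low signal ratio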;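 further: stock transfer was 100 nL into about 20 µL; 0% = negative control wells and 100% = wells with untagged competitor protein; inactives centre near -12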
# Sa growth 42C = blocks Staphylococcus aureus growth | S. aureus RN4220 growth, OD600, 20 h, 42 °C; active compounds read low | relative growth, % (no concentration beside the values) | hit rate 0.53% among 170,000 | AID 720641;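 active means growth at 42 °C up to 50% and 20 or more points under that at 30 °C, or under 10% at both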;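 further: 300 nL library stock went into each well; scaled to the means of positive and negative controls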
# GIV-Gai inh = GIV-Galpha-i interaction inhibition; P08753; Galpha-i3/FITC-GIV peptide fluorescence polarization, 90 min; active compounds read low; scaled: aluminum fluoride 0%, vehicle 100%; percent of control (FP), % (no concentration beside the values); hit rate 0.42% among 210,000;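 active means replicate mean at 85% of control or lower, very high polarization wells dropped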;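 further: wells of about 15 µL received 100 nL stock; the first replicate is given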
# Target sequence (P08753 whole entry, looked up): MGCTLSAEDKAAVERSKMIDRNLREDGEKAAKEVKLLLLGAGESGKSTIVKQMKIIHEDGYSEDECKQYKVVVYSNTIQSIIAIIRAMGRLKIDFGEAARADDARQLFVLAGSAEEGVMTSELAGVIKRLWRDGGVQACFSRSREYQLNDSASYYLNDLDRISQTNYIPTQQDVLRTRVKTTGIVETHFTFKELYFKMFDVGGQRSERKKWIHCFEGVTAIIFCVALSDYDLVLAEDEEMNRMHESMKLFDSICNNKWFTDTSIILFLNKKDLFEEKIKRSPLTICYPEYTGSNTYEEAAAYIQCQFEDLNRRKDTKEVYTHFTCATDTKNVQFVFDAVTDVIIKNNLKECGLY
# Sa growth 42C second temp = recorded beside Sa growth 42C, whose call it bears; relative growth, %; measured here: growth at 30 °C;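 optical density after 20 h as mean of two plates; 100% = untreated growth and lower means inhibition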
# Numbers without * were called inactive; . = no result given; & = joins results of further samples.
no.	canonical_smiles	HCMV UL50-53 inh	Sa growth 42C	Sa growth 42C second temp	GIV-Gai inh
1	COc1ccc(CCC(=O)NC2CC(=O)N(c3ccc(C)c(C)c3)C2)cc1 (stereo not given)	.	111	82	96
2	O=S(=O)(c1ccc(F)cc1)N(CCO)CC(O)Cn1c2ccccc2c2ccccc21 (stereo not given)	-18	95	73	101
3	CCN(C(=O)Cn1c(SCC(=O)Nc2ccc(OC)cc2)nc2ccccc21)c1cccc(C)c1	.	148	108	106
4	CN(C)S(=O)(=O)c1ccc(C(=O)CSc2nnc(C3COc4ccccc4O3)n2C)cc1 (stereo not given)	-18	76	86	.
5	NC(=O)CSc1nc2sc3c(c2c(=O)n1C1CCCCC1)CCCCC3	-32	.	.	106
6	COc1ccc(OCCSCC(=O)N2CCN(c3ccc(OC)cc3)CC2)cc1	-10	99	91	.
7	Cc1sc2ncn(CC(=O)Nc3ccc(C(F)(F)F)cc3)c(=O)c2c1S(=O)(=O)N1CCN(C)CC1	33	92	91	104
8	Cc1cc(-c2ccc(S(=O)(=O)N3CCC(C)CC3)s2)n[nH]1	0	87	91	101
9	Cc1cc(C)c2c(-n3cccc3)nn(CC(=O)N3CCCCC3)c2n1	-13	98	109	109
10	OCCn1c(CN2CCCCC2)nc2ccccc21	-27	108	94	102
11	CCSCCOC(=O)C1=C(C)NC2=C(C(=O)CC(c3ccc(OC)cc3)C2)C1c1ccc(OC)c(OC)c1 (stereo not given)	-15	.	.	102
12	CCOc1nc2cnccc2n(CC(=O)NCc2ccco2)c1=O	-35	96	81	105
13	O=C(Nc1ncccn1)C1CCCCC1	-4	103	79	99
14	COc1ccc(OC)c(C2C(C(=O)Nc3ccccc3OC)=C(C)Nc3c(C(=O)Nc4ccc(F)cc4)cnn32)c1 (stereo not given)	.	124	102	103
15	CN(CCOC(=O)c1ccc(OC(F)(F)F)cc1)c1ccc(C#N)cn1	-2	96	82	98
16	O=C(Cn1cnc2scc(-c3ccccc3)c2c1=O)N1CCCCC1	5	105	96	.
17	Cc1ccc(NC(=O)c2c[nH]c(=O)[nH]c2=O)cc1	-30	99	75	107
18	CCCCS(=O)CC(O)CSc1nc(-c2ccc(OC)cc2)cc(-c2ccccc2)c1C#N (stereo not given)	-36	111	82	107
19	Cc1cccc(N2CCN(CC(O)c3ccc4cc[nH]c4c3)CC2)c1C (stereo not given)	-2	99	104	102
20	CCOc1ccc(N(C(=O)CC(C)C)S(=O)(=O)c2ccc3c(c2)oc(=O)n3C)cc1	-6	91	91	116
21	CC(C)N(Cc1nc(-c2ccc(Cl)cc2)no1)C(=O)Cc1ccccc1	-33	98	71	102
22	O=C(NCCCN1CCN(c2cccc(Cl)c2)CC1)c1nnc(Cc2ccc(F)cc2Cl)o1	-4	97	85	108
23	Cc1ccc(C(=O)C(C)n2nc3n(CC(C)C)c(=O)c4ccc(C(=O)NCC(C)C)cc4n3c2=O)cc1C (stereo not given)	-40	.	.	100
24	COc1ccc(-c2nc3cnccn3c2Nc2ccccc2C)cc1	-11	.	.	104
25	Cc1cc(N2CCN(C)CC2)ccc1NC(=O)C1CC(=O)N(Cc2ccccc2Cl)C1 (stereo not given)	-20	87	93	.
26	O=C(CCc1nc2sc3c(c2c(=O)[nH]1)CCCC3)N1CCN(C2CCCCC2)CC1	-25	.	.	102
27	Cc1cc(NC(=O)C2COc3ccccc3O2)no1 (stereo not given)	.	90	81	100
28	CN(C)S(=O)(=O)N1CCN(S(=O)(=O)N2CCCCCC2)CC1	-16	110	94	102
29	O=C(O)CC1CCCCN1 (stereo not given)	-25	91	91	101
30	CC1(C)C2CCC(C2)C1C/C=N/NC(N)=O (stereo not given)	-21	102	90	103
31	CCc1ccccc1NC(=O)C(=O)NCCCN1CCOCC1	-26	105	93	107
32	CN1C2CCC1CC(OC(=O)c1c[nH]c3ccccc13)C2 (stereo not given)	-22&-32&-35&-36	119	78	100
33	N#Cc1ccc(CSc2nc3ncccc3c(=O)n2Cc2ccccc2)cc1	.	93	71	143
34	C/C(N)=C(/C#N)C(=O)CSc1nnc(Cc2cccc3ccccc23)n1N	3	98	96	.
35	CCC(CC)NC(=O)COc1cccc2c1OC(C)(C)C2	-3	115	111	.
36	O=C(Nc1cccnc1)/C(N=Nc1cccnc1)=C(\O)c1ccccc1	-100	102	89	.
37	O=C(O)CCc1nc2ccccc2n1CCC(=O)O	-5	108	85	104
38	O=C(NCc1ccc(-c2cccs2)s1)c1ccc(N2CCOCC2)nc1	0	90	103	101
39	CCn1c(CCc2ccccc2)n[nH]c1=S	14	96	57	103
40	Cc1ccc(S(=O)(=O)N(C)CC(=O)OCc2nnc(-c3ccccc3)o2)cc1	-12	95	98	.
41	O=S(=O)(NCCc1csc(-c2cccnc2)n1)c1ccccc1	.	94	83	98
42	Cc1cccc(NC(=O)N2CC(=O)Nc3sc4c(c3C2c2ccccc2)CCCC4)c1C (stereo not given)	-16	133	103	103
43	Cc1ccccc1OCCCn1c(C2CCCO2)nc2ccccc21 (stereo not given)	2	.	.	106
44	CCC(=O)N1CCc2cc(S(=O)(=O)NC(CC(C)C)C(=O)NCc3ccc(F)cc3)ccc21 (stereo not given)	-13	100	97	102
45	Cn1c(N2CCC(C(=O)O)CC2)nc2ccccc21	-6	.	.	105
46	CS(=O)(=O)n1nccc1-c1ccc(-c2ccc(F)cc2F)o1	-4	118	93	104
47	Cc1sc(NC(=O)c2ccc(Br)s2)c(C(N)=O)c1C	-7	115	106	97
48	CC1CCc2c(sc(NC(=O)C3c4ccccc4Oc4ccccc43)c2C(N)=O)C1 (stereo not given)	.	92	80	108
49	CCn1c(SCC(=O)N=Nc2c(O)[nH]c3ccccc23)nc2ccccc21	-66	98	75	96
50	C/C=N/N(C)c1cc(=O)n(C)c(=O)[nH]1	-15	98	69	107
51	CCOc1ccc(N2C(=O)CSCC2(C(=O)NC2CCCCC2)c2ccc(Cl)cc2)cc1 (stereo not given)	-22	.	.	108
52	COC(=O)c1cc(CSc2nc3ccccc3[nH]2)oc1C	7	81	80	.
53	O=C1/C(=C\c2ccco2)SC(=S)N1CCC(=O)N(CCO)c1ccccc1	-99	92	71	118
54	CCCCN(CCCC)C(=O)CSc1nc2sc(C)c(C)c2c(=O)[nH]1	3	.	.	103
55	CC1CC1C(=O)OCC(=O)Nc1ccccc1Br (stereo not given)	-30	90	79	.
56	Clc1cc(Cl)cc(CN2CCSCC2)c1	2	103	108	106
57	O=C(CSc1nc2nc[nH]c2c(=O)[nH]1)NCC1CCCO1 (stereo not given)	-7	.	.	104
58	CN1/C(=C2/SC(=O)N(Cc3ccccc3)C2=O)Sc2ccccc21	-24	99	102	105
59	Cc1ccc(-c2noc(C3CCN(C(=O)c4ccc5c(c4)OCO5)CC3)n2)cc1	-13	.	.	102
60	O=C(c1cccc(Cl)c1)N1CCn2c1nc1ccccc12	-8	96	89	96

# Other compounds follow:
no.	canonical_smiles	HCMV UL50-53 inh	Sa growth 42C	Sa growth 42C second temp	GIV-Gai inh
61	Cn1ccnc1	-11	.	.	95
62	Cc1ccc(C2CC(c3cccs3)=NN2C(=O)CSc2nnc(CNC(=O)c3cccs3)n2C)cc1 (stereo not given)	-11	95	64	102
63	O=C(Cc1ccccc1)NCc1nc2ccccc2n1Cc1ccc(Cl)cc1	-16	.	.	103
64	Cc1ccc(Sc2c(C)[nH]n(-c3ccccc3)c2=O)cc1	-26	37	23	95
65	Cc1ccc2ncc(C(=O)Nc3ccccc3)c(=O)n2c1	-37	.	.	106
66	CCN(CC)C(=O)C(Cc1ccccc1)N1C(=O)C2C3C=CC(C3)C2C1=O (stereo not given)	2	97	92	105
67	Cc1nn(-c2cc(N(C)C)ncn2)c(C)c1CCC(=O)N1CCCCC1	18	.	.	102
68	CCc1ccccc1-n1nnnc1SC1OC(=O)c2ccccc21 (stereo not given)	6	108	72	109
69	Cc1cc(N2CCC(C(=O)Nc3ccc(Cl)cc3)CC2)n2nc(C)c(-c3ccc(Cl)cc3)c2n1	-31	91	93	106
70	O=C(c1noc2c1CCCCC2)N1CCCC1	1	.	.	99
71	CCOC(=O)c1oc2ccccc2c1CO	.	-0.7*	-0.9*	102
72	O=C(Nc1cccc2nsnc12)c1ccc(-c2cccc(Cl)c2)o1	-50	91	52	131
73	COC(=O)c1ccc(NC(=O)C2C3CCC(C3)C2C(=O)O)cc1 (stereo not given)	.	101	84	97
74	CN1CCN(C(CNC(=O)C2CCCCC2)c2ccc(N(C)C)cc2)CC1 (stereo not given)	-12	.	.	102
75	Cc1cc(C)c2c(=O)c3c(oc2c1)C(=O)N(Cc1ccc(F)cc1)C3c1cccc(O)c1 (stereo not given)	-34	109	75	92

76) Cc1ccc(CCNC(=O)c2c(C)oc3ncn(CC(C)C)c(=O)c23)cc1
77) NC(=O)C1CCN(Cc2c(O)ccc3ccccc23)CC1
78) Cc1ccc(NCc2ccc(Cl)nc2)c(NCc2ccc(Cl)nc2)c1
79) COC(=O)c1ccccc1N/C=C(\C#N)c1nc2ccccc2[nH]1
80) N#Cc1ccccc1CN1C(=O)c2cccc3cccc1c23
81) Cc1ccc(Sc2c(-c3ccccc3)nc3ncccn23)cc1
82) Cc1ccc(S(=O)(=O)c2[nH]c(-c3ccccc3)nc2SCCC(=O)O)cc1
83) CSc1ccc(-c2nc(CSCC(=O)NC3CC3)c(C)o2)cc1

Compound,76,77,78,79,80,81,82,83
HCMV UL50-53 inh,.,-41,.,-7,-55,-17,-3,-25
Sa growth 42C,103,88,99,101,113,49,105,91
Sa growth 42C second temp,97,74,88,75,93,57,86,90
GIV-Gai inh,116,101,95,104,.,.,103,106

84) CCNC(=O)c1c(-c2ccccc2)noc1C
85) COc1ccc(-c2cc(C(F)(F)F)n3nc(C(=O)Nc4cc(Cl)cc(Cl)c4)cc3n2)cc1
86) O=C(CN1C(=O)CCCc2ccccc21)NCCN1CCCCC1
87) COc1ccc(NC(=O)c2cccn2-c2cccnc2)cc1OC
88) COc1ccc(CCNC(=O)c2cccc(NC(=O)N3CCCCc4ccccc43)c2)cc1OC
89) O=C(c1ccc2nc3sc4c(c3c(=O)n2c1)CCCC4)N1CCN(c2ccccc2)CC1
90) c1ccc(CNc2nc3cccnc3s2)cc1
91) Cc1ccc(-n2nnnc2CNC(=O)c2cc(C(F)(F)F)cc(C(F)(F)F)c2)cc1C

Compound,84,85,86,87,88,89,90,91
HCMV UL50-53 inh,0,-17,-10,-33,-22,-37,-4,.
Sa growth 42C,111,107,.,.,.,.,110,101
Sa growth 42C second temp,91,90,.,.,.,.,64,96
GIV-Gai inh,102,103,104,108,106,105,99,97

92) O=C(O)CNC(=O)c1cc(-c2ccc(Cl)cc2)nc2ccccc12
93) Cc1ccc(Cl)cc1Nc1nncc(=O)[nH]1
94) Cc1nc(-c2cccc(N3CC(C(=O)NC4CCCC4)CC3=O)c2)no1 (stereo not given)
95) COC(=O)c1c(C)nc2nonc2c1N
96) N#C/C(=C(/O)CCN1C(=O)c2ccccc2C1=O)c1nc2ccccc2[nH]1
97) CCOC(=O)N1CCN(C(=O)c2cnc3n(c2=O)CCS3)CC1
98) COCC(C)n1c(C)cc(C(=O)COC(=O)[C@@H]2CCCN2C(=O)c2cccs2)c1C (stereo not given in full)
99) CC1Cn2c(nnc2-c2cccc(O)c2)S1 (stereo not given)

Compound,92,93,94,95,96,97,98,99
HCMV UL50-53 inh,-76,6,-31,-119,.,-1,-9,-6
Sa growth 42C,111,.,.,98,121,93,86,105
Sa growth 42C second temp,85,.,.,98,93,97,95,78
GIV-Gai inh,.,104,102,104,106,105,.,.

# An excerpt of these results, with two lines to a compound:
# Results follow in this order: HCMV UL50-53 inh | Sa growth 42C | Sa growth 42C second temp | GIV-Gai inh
(93) Cc1ccc(Cl)cc1Nc1nncc(=O)[nH]1
  6 | . | . | 104
(94) Cc1nc(-c2cccc(N3CC(C(=O)NC4CCCC4)CC3=O)c2)no1 (stereo not given)
  -31 | . | . | 102
(95) COC(=O)c1c(C)nc2nonc2c1N
  -119 | 98 | 98 | 104

# (more compounds)
100) COC(=O)Cn1c(=NC(=O)C(C)(C)C)sc2cc(F)ccc21
101) CCOc1ccccc1NC(=O)c1c(C)cc(C)nc1SCC(=O)c1cccc(OC)c1
102) COc1ccc(Cc2nn[nH]n2)cc1
103) Cc1[nH]c2ccc(C(=O)O)cc2c1C
104) Cc1ccc(-c2nn(-c3ccccc3)cc2C(=O)N(C)C2CCN(C)CC2)cc1
105) CCNC(=O)c1ccc(C2SCC(=O)N2Cc2ccco2)cc1 (stereo not given)
106) COc1cc(-c2nnc(COC(=O)c3cccnc3SC)o2)cc(OC)c1OC
107) COC(=O)c1c(-c2cccs2)csc1NC(=O)c1ccc(C(C)(C)C)cc1
108) CS(=O)(=O)CCSc1ncccc1C(=O)NCc1cccs1
109) CCCNCc1cc(=O)n2[nH]c(NCc3ccc(C)cc3)nc2n1
110) COc1ccc(Cn2c(CCC(=O)Nc3ccc(F)cc3)nc3cccnc32)cc1

Compound,100,101,102,103,104,105,106,107,108,109,110
HCMV UL50-53 inh,-15,-34,4,.,-24,18,-15,-39,15,-12,-20
Sa growth 42C,103,93,90,114,99,83,94,104,109,.,.
Sa growth 42C second temp,104,88,89,101,82,78,89,81,100,.,.
GIV-Gai inh,107,101,99&104,106,.,96,.,103,102,102,101

# Excerpt, compounds 12–13
12) CCOc1nc2cnccc2n(CC(=O)NCc2ccco2)c1=O
13) O=C(Nc1ncccn1)C1CCCCC1

Compound,12,13
HCMV UL50-53 inh,-35,-4
Sa growth 42C,96,103
Sa growth 42C second temp,81,79
GIV-Gai inh,105,99
